HNF4A DNA FP = change in binding of human HNF4 alpha to DNA | P41235 | HNF4a-FITC DNA binding, fluorescence polarization, 1 h | activity change, % at 10 µM | 360,000 tested, 0.3% active | AID 1224865; in the data active = activity change above about 30%, passing the limit was not always enough;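 note: controls were the assay level and a saturating level of protein; the project sought stronger binding though the title names inhibitors; some compounds called inactive have numbers as strong as hits; positive values seem to mean higher polarization but the record does not say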
Target sequence (P41235 whole entry, looked up): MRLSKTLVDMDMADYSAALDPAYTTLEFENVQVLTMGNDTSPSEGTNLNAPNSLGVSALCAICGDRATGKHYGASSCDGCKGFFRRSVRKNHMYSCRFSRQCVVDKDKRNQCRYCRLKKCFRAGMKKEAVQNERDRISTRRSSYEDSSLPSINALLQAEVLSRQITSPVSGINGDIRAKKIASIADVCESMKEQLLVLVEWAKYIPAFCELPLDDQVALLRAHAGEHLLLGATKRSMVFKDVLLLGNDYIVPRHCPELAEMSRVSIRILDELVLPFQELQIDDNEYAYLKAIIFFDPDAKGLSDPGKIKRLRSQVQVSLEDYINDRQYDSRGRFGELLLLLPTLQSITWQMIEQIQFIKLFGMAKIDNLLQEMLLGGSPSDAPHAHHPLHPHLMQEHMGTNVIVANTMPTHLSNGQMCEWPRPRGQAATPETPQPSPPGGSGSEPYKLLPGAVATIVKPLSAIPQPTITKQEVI
An asterisk follows results filed as active. Some of the compounds tested, so the mix of outcomes need not match the whole.

`CC1(Cc2cccc(F)c2)C(=O)Nc2ccc(OC(F)(F)F)cc21` (stereo unspecified) gave HNF4A DNA FP 1.8.
For COc1ccc(CNC(=O)c2[nH]c(C(F)(F)F)nc2-c2ccccc2)cc1OC the results were HNF4A DNA FP 1.6.
For O=C(NC(c1ccc(-c2ccccc2)cc1)c1cnccn1)C1CCN(Cc2cccc(C(F)(F)F)c2)CC1 (stereo unspecified) the results were HNF4A DNA FP 0.7.
For O=C1[C@H]2[C@@H](c3ccc(C(F)(F)F)cc3)N[C@]3(CCCN(Cc4ccc(F)cc4)C3=O)[C@H]2C(=O)N1Cc1ccccc1 the results were HNF4A DNA FP -3.5.
`COC(=O)[C@@]1(Cc2ccc(F)cc2)[C@H]2c3cc(C(=O)N4CCCC4)n(Cc4ccccc4)c3C[C@H]2CN1C(=O)c1ccccc1` gave HNF4A DNA FP 0.8.
Screening COc1ccccc1Cc1c(-c2ccc(C)cc2)nc2cc(C)c(Br)c(C)n12 returned HNF4A DNA FP 6.7.
For CCCNC(=O)C1(C)CCN(C(=O)Cc2ccc(OC)c(OC)c2)C1 (stereo unspecified) the results were HNF4A DNA FP 0.3.
For N#CC(=Cc1ccc(-c2ccccc2)cc1)C(=O)c1ccccc1 the results were HNF4A DNA FP -2.3.
Screening N#CC(c1ccccc1)c1ccc([N+](=O)[O-])cc1 (stereo unspecified) returned HNF4A DNA FP -3.2.
CC(C)(C)c1ccc(C(=O)N2CCC2(C)C(=O)Nc2cccc3ccccc23)cc1 (stereo unspecified) was read as HNF4A DNA FP 0.8.
`CCc1nc2c(OCc3c(C)noc3C)cccn2c1N(C)C(=O)c1ccccc1F` gave HNF4A DNA FP -0.9.
For COc1ccc(C(=O)N2CCN(S(=O)(=O)c3ccc4c(c3)OCCO4)CC2)cc1 the results were HNF4A DNA FP -1.9.

Already shown: 2 of the compounds above.
For O=C(NC(c1ccc(-c2ccccc2)cc1)c1cnccn1)C1CCN(Cc2cccc(C(F)(F)F)c2)CC1 (stereo unspecified) the results were HNF4A DNA FP 0.7.
For O=C1[C@H]2[C@@H](c3ccc(C(F)(F)F)cc3)N[C@]3(CCCN(Cc4ccc(F)cc4)C3=O)[C@H]2C(=O)N1Cc1ccccc1 the results were HNF4A DNA FP -3.5.

More compounds:
CC[C@H](CO)Oc1cc(NCc2cccc(N)c2)c2ncn(C(C)C)c2c1 was read as HNF4A DNA FP 2.8.
CC(C)NC(=O)C1(C)CSCC(=O)N1Cc1ccco1 (stereo unspecified) was read as HNF4A DNA FP 0.7.
For COc1cccc(-c2cnc3c(NC=O)cc(-c4ccc(OC)cc4OC)cn23)c1 the results were HNF4A DNA FP 11.
Screening CCOP(=O)(OCC)C(Cc1ccccc1)N=C(c1ccccc1)c1ccccc1 (stereo unspecified) returned HNF4A DNA FP 2.8.
CCc1nc2c(OCc3ccc(Cl)cc3Cl)cccn2c1N(C)C(=O)c1ccccc1F was read as HNF4A DNA FP 4.9.
Screening CCc1nc2ccc(C(=O)Nc3cccc(OC)c3)cn2c1N(CC)CCOC returned HNF4A DNA FP 1.7.
O=C1NC[C@H](CCCCN2CCN(Cc3ccccc3)C(=O)C2=O)N(CCc2ccccc2)C1=O was read as HNF4A DNA FP 11.
`O=C(OCc1cn([C@@H]2C[C@H](c3ccc(Cl)cc3)N(C(=O)C3CCCCC3)C[C@H]2O)nn1)c1ccccc1` gave HNF4A DNA FP -2.1.
COc1ccc(CN2CCC2(C)C(=O)Nc2ccc(OC)c(OC)c2)cc1 (stereo unspecified) was read as HNF4A DNA FP 4.0.
`Cc1ccc(S(=O)(=O)N2C[C@H]3C(=O)C[C@@H](c4ccccc4)N(S(=O)(=O)c4ccc(C)cc4)[C@H]3C[C@H]2c2cccc3ccccc23)cc1` gave HNF4A DNA FP 2.1.
`C#CCNC(=O)C[C@@H]1C[C@@]2(C(=O)OC)CC(C)(C)CC=C2N(Cc2ccccc2)C1=O` gave HNF4A DNA FP -0.3.
Screening COc1cccc(S(=O)(=O)Nc2ccc3c(c2)[C@@H]2C[C@@H](CC(=O)NCc4ccc(Cl)cc4)O[C@@H](CO)[C@@H]2O3)c1 returned HNF4A DNA FP 4.4.
`O=S1(=O)CC(N2CCCC2)CN1C1CCCCC1` (stereo unspecified) gave HNF4A DNA FP -2.3.
Screening CC(C)C[C@@H](CN1CCC[C@@H]1CN1C(=S)NC[C@@H]1Cc1ccccc1)N1C[C@H](Cc2ccc(O)cc2)N(CCc2ccccc2)C1=S returned HNF4A DNA FP 1.1.
C[C@H]1CN([C@@H](C)CO)C(=O)CCCn2nncc2CO[C@H]1CN(C)S(=O)(=O)c1ccc(Cl)cc1 was read as HNF4A DNA FP -2.3.
For CCc1nc2ccc(C(=O)NCCOc3ccc(OC)cc3)cn2c1N(CCN(C)C)CC1CC1 the results were HNF4A DNA FP 1.4.
For O=C(NCc1ccccc1)C(c1ccc(F)cc1)N1CCN(CCN2CCOCC2)CC1 (stereo unspecified) the results were HNF4A DNA FP -3.6.
CSc1ccc(OC2(C)CCN(Cc3ccc(C(C)C)cc3)C2)cc1 (stereo unspecified) was read as HNF4A DNA FP -1.8.
Screening COCOc1cccc(CN2CCC2(C)C(=O)Nc2ccc3c(c2)OCO3)c1 (stereo unspecified) returned HNF4A DNA FP 1.3.
For CCNC(=O)C1(C)CCCN1C(=O)c1ccc(N(C)C)cc1 (stereo unspecified) the results were HNF4A DNA FP 6.2.
`O=NN(C(=O)NC1CCC(C(=O)O)CC1)C1CCC(C(=O)O)CC1` (stereo unspecified) gave HNF4A DNA FP 4.2.
`O=c1[nH]c(=S)[nH]c2c1C(c1ccc(F)cc1)OC(CCOCc1ccccc1)C2` (stereo unspecified) gave HNF4A DNA FP 2.1.
COCCNC(=O)C1(C)CCCN(C(=O)c2ccc(OC)cc2OC)C1 (stereo unspecified) was read as HNF4A DNA FP 2.3.
CCc1nc2ccc(C(=O)NCCCN(C)C)cn2c1N(CC)CCOC was read as HNF4A DNA FP -1.7.

Five compounds already listed, ordered by SMILES length, highest first.
C[C@H]1CN([C@@H](C)CO)C(=O)CCCn2nncc2CO[C@H]1CN(C)S(=O)(=O)c1ccc(Cl)cc1 was read as HNF4A DNA FP -2.3.
Screening COCOc1cccc(CN2CCC2(C)C(=O)Nc2ccc3c(c2)OCO3)c1 (stereo unspecified) returned HNF4A DNA FP 1.3.
COCCNC(=O)C1(C)CCCN(C(=O)c2ccc(OC)cc2OC)C1 (stereo unspecified) was read as HNF4A DNA FP 2.3.
CSc1ccc(OC2(C)CCN(Cc3ccc(C(C)C)cc3)C2)cc1 (stereo unspecified) was read as HNF4A DNA FP -1.8.
For CCNC(=O)C1(C)CCCN1C(=O)c1ccc(N(C)C)cc1 (stereo unspecified) the results were HNF4A DNA FP 6.2.

Continuation.
Screening COc1cc(CN2CCC(C(=O)NC(c3ccc(F)cc3)c3ncccc3C)CC2)cc(OC)c1 (stereo unspecified) returned HNF4A DNA FP -7.2.
`CSCCC(C(=O)NC1CCCC1)n1c(C2CC2)nc2ccccc21` (stereo unspecified) gave HNF4A DNA FP 8.6.
`CO[C@H]1CN(C)C(=O)c2ccc(NC(=O)c3ccc4c(c3)OCO4)cc2OC[C@H](C)N(CC2CC2)C[C@@H]1C` gave HNF4A DNA FP 4.0.
CCc1nc2ccc(C(=O)Nc3cccc(NS(C)(=O)=O)c3)cn2c1N(C)C(=O)Cc1ccccc1 was read as HNF4A DNA FP 6.5.
Screening COc1ccc(S(=O)(=O)N2CCCCC2c2cc(C(=O)Nc3ccc4c(c3)OCO4)no2)cc1 (stereo unspecified) returned HNF4A DNA FP 0.8.
`COc1ccc(CNC(=O)c2ccc(-c3ccc(F)c(F)c3)c3ccoc23)cc1OC` gave HNF4A DNA FP -5.6.
Screening CCOc1ccccc1-c1ccc(C(=O)NCc2ccc(Cl)cc2)o1 returned HNF4A DNA FP -1.8.
`CCc1nc2ccc(C(=O)Nc3cccc(OC)c3)cn2c1N(CC)Cc1cccc(Br)c1` gave HNF4A DNA FP 2.0.
For CC(C)C[C@H]1CN([C@@H](Cc2ccccc2)CN2CCC[C@@H]2CN2C(=O)C(=O)NC[C@@H]2Cc2ccc(O)cc2)C(=O)C(=O)N1CC1CCCCC1 the results were HNF4A DNA FP -1.6.
`CCCCCc1c(-c2ccc(F)cc2F)ncn1CCc1ccccc1OC` gave HNF4A DNA FP 1.7.
Screening CCOC(=O)C1(C)CCN1C(=O)c1ccco1 (stereo unspecified) returned HNF4A DNA FP -0.1.
`Cc1cc2oc(=O)cc(CN3CCCC3)c2cc1Cl` gave HNF4A DNA FP 7.2.
Screening CCc1nc2ccc(C(=O)NCCc3ccccn3)cn2c1N(CCC(C)C)CCN(C)C returned HNF4A DNA FP -1.4.
For O=C1C(=Cc2ccc(F)cc2)CCc2ccccc21 the results were HNF4A DNA FP -0.9.
Screening Cc1ccc(NC(=O)c2ccc(-c3cc(Cl)ccc3Cl)o2)c(C)c1 returned HNF4A DNA FP -0.5.
Screening COc1ccc(NC(=O)C2(C)Cc3c(-c4cccc(NC(C)=O)c4)ccnc3O2)cc1OC (stereo unspecified) returned HNF4A DNA FP 3.5.
COC[C@H]1CCCN1[C@H]1CS(=O)(=O)N[C@@H]1COCc1ccccc1 was read as HNF4A DNA FP 3.4.
Cc1ccc(C(=O)C2C(=O)C3CCC2C3)cc1 (stereo unspecified) was read as HNF4A DNA FP -1.5.
For CCOC(=O)C1=CCN(S(=O)(=O)c2ccc(C)cc2)C1c1cccc(C)c1 (stereo unspecified) the results were HNF4A DNA FP -0.2.
Screening COc1ccc(-c2cc(NC=O)c3ncc(-c4ccc(OC)c(OC)c4)n3c2)cc1OC returned HNF4A DNA FP 8.3.
`CCCOc1ccc(F)cc1-c1cc(C(=O)NCc2ccccc2)[nH]n1` gave HNF4A DNA FP 5.9.
`CC1Cn2c(Cc3ccccc3)nnc2S1` (stereo unspecified) gave HNF4A DNA FP 0.8.
Screening COc1ccc(-c2oc3c(c2C(=O)OCCO)C(OCCO)CCC3)cc1 (stereo unspecified) returned HNF4A DNA FP 1.7.
Screening O=C(/C=C/[C@H]1O[C@@H](n2ccc(=O)[nH]c2=O)[C@H](O)[C@@H]1O)NC1CCN(Cc2ccccc2)C1 (stereo partly specified) returned HNF4A DNA FP -0.9.

4 entries picked at random from the list so far, as already listed:
Cc1ccc(C(=O)C2C(=O)C3CCC2C3)cc1 (stereo unspecified) was read as HNF4A DNA FP -1.5.
Screening COc1ccc(-c2oc3c(c2C(=O)OCCO)C(OCCO)CCC3)cc1 (stereo unspecified) returned HNF4A DNA FP 1.7.
Screening COc1ccc(NC(=O)C2(C)Cc3c(-c4cccc(NC(C)=O)c4)ccnc3O2)cc1OC (stereo unspecified) returned HNF4A DNA FP 3.5.
For CCOC(=O)C1=CCN(S(=O)(=O)c2ccc(C)cc2)C1c1cccc(C)c1 (stereo unspecified) the results were HNF4A DNA FP -0.2.

Later entries:
COC(=O)C[C@H]1C=C[C@@H](NC(=O)c2ccncc2)[C@@H](CO)O1 was read as HNF4A DNA FP -2.9.
Cc1cc(Br)cn2c(Cc3ccsc3)c(-c3ccc(Cl)cc3)nc12 was read as HNF4A DNA FP -13.
For O=S1(=O)N[C@H](Cc2ccccc2)COc2cccc(N3CCN(Cc4ccccc4F)CC3)c21 the results were HNF4A DNA FP 5.0.
For CCOC(=O)N(C)c1c(CC)nc2c(OCc3ccc(OC(F)F)cc3)cccn12 the results were HNF4A DNA FP 2.9.
For Cc1nnsc1C(=O)N1CCCC(C)(C(=O)NS(=O)(=O)C2CC2)C1 (stereo unspecified) the results were HNF4A DNA FP 1.0.
For CC(=O)Nc1cccc(Nc2cnccn2)c1 the results were HNF4A DNA FP 0.4.
For COc1ccc(N2C(=O)c3ccccc3NC(=O)C2C(=O)Nc2ccc3c(c2)OCCO3)cc1 (stereo unspecified) the results were HNF4A DNA FP -1.1.
`C[C@@H]1CN([C@@H](C)CO)C(=O)CCCn2nncc2CO[C@H]1CN(C)C(=O)Nc1cccc(Oc2ccccn2)c1` gave HNF4A DNA FP -1.4.
Screening O=C(NCC[C@@H]1CC[C@@H](NC(=O)c2cnccn2)[C@@H](CO)O1)c1ccc2c(c1)OCO2 returned HNF4A DNA FP 2.3.
`COc1cc2c(c(O)c1OC)C1Cc3ccc(OC)c(OC)c3CN1CC2` (stereo unspecified) gave HNF4A DNA FP 0.1.
C[C@H]1CN([C@@H](C)CO)C(=O)CCCn2nncc2CO[C@H]1CN(C)C(=O)Nc1ccc(N2CCCCC2)cc1 was read as HNF4A DNA FP 1.8.
Screening CC(=O)Nc1cc(-c2cccc(C(=O)NCCN(C)C)c2)cn2c(-c3ccc(S(C)(=O)=O)cc3)cnc12 returned HNF4A DNA FP 11.
Cc1ccc(C)c(NC(=O)COC(=O)c2ccc(S(=O)(=O)N3CCCC3)cc2)c1 was read as HNF4A DNA FP 3.9.
Screening COC(=O)[C@@]12C[C@@H](CC(=O)NCC34CC5CC(CC(C5)C3)C4)C(=O)N(Cc3ccco3)C1=CCC(C)(C)C2 returned HNF4A DNA FP -6.2.
Screening CCc1nc2ccc(C(=O)N3CCN(S(=O)(=O)CC)CC3)cn2c1N(C)CCC(C)C returned HNF4A DNA FP 0.9.
For CN(C(=O)CN1CCN(c2cc(-c3ccc(-c4ccccc4)cc3)ncn2)CC1)c1ccccc1 the results were HNF4A DNA FP -0.8.
For OC[C@@H]1CN(Cc2ccccc2)C[C@H](n2ccc3c(N4CCCC4)ncnc32)O1 the results were HNF4A DNA FP 4.0.
Screening CCOC(=O)N(C)c1c(CC)nc2c(OCc3ccccc3)cccn12 returned HNF4A DNA FP -1.2.
`O=C1C=C(N2CCOCC2)c2cccc3cccc1c23` gave HNF4A DNA FP -24.
`CC(C)NC(=O)C1(C)CN(S(C)(=O)=O)CC(=O)N1CCOc1ccccc1` (stereo unspecified) gave HNF4A DNA FP -1.4.
Screening CC(=O)NC(c1cccc(F)c1)c1nc(-c2cccc(F)c2)cs1 (stereo unspecified) returned HNF4A DNA FP -2.0.
CC(C)NC(=O)C1(C)CCN1C(=O)c1ccccc1 (stereo unspecified) was read as HNF4A DNA FP 1.0.
CCCNC(=O)C1(C)CCN(CCC(=O)c2ccc(Br)cc2)C1 (stereo unspecified) was read as HNF4A DNA FP -2.8.
Screening CC(C)C(N)c1csc(NC(=O)Nc2cccc(C(F)(F)F)c2)n1 (stereo unspecified) returned HNF4A DNA FP 0.2.
`Cc1ccc(Cc2c(-c3ccco3)nc3c4ccccc4ccn23)cc1` gave HNF4A DNA FP 18.

From PubChem BioAssay
